Screens as filed in PubChem BioAssay.
VDR inhibitor: vitamin D3 receptor (human) inhibition. P11473. VDR-SRC2-3 peptide fluorescence polarization, 2 h. Potency, µM, inactives show max response, negative = inhibition, hits mostly inhibitors. 0.93% of 400,000 active; active = well fitted inhibition curve with a large enough effect; inconclusive = small, poorly fitted or top-dose-only effect, or another doubt; inactive = no such curve, though single readings can be large or run the other way; note: series mostly up to about 120 µM
Target sequence (P11473 whole entry, looked up): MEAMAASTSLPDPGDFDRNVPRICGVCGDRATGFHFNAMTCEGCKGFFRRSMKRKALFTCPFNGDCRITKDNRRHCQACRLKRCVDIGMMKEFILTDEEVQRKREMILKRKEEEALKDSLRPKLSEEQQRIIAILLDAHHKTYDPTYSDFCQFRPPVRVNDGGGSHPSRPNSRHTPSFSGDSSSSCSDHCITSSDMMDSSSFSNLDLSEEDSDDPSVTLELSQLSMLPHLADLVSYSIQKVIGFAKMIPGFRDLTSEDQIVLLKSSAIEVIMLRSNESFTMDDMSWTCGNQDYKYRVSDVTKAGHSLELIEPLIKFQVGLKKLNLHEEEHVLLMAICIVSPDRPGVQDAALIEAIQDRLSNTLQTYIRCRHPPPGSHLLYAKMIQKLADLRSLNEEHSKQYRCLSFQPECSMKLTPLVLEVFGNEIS
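Reagent solutions, kept cold and dark, are dispensed first; compounds are then pinned in at 23 nl, plates briefly spun, and incubated 2 h at ambient temperature. Inhibition of VDR–SRC2-3 peptide binding is read by fluorescence polarization.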
* hit, by the source's call; ? = inconclusive; & = joins results of further samples. % is set by controls: 0 for no effect and ±100 for the full control effect; potency is the fitted concentration of half-maximal effect.

SMILES | VDR inhibitor
C/C(=N\O)c1ccc(N2C(=O)C3CC=C(Cl)CC3C2=O)cc1 (stereo unspecified) | 12%
CC1(C)CC(=O)C(C(C2=C(O)CC(C)(C)CC2=O)c2cccs2)C(=O)C1 (stereo unspecified) | 50µM*
Cc1cnc(C(=O)OCC(=O)Nc2sc3c(c2C(N)=O)CCCC3)cn1 | -15%
O=C(CNCc1ccco1)Nc1ccc(N2CCCCCC2)cc1 | -4%
CCCCn1c(-c2ccc(Cl)cc2)nc2c(=O)n(C)c(=O)[nH]c21 | 8%
Oc1c(C(c2ccc(F)cc2)N2CCN(Cc3ccccc3)CC2)sc2nc(-c3ccco3)nn12 (stereo unspecified) | -4%
Nc1ncccc1C(=O)OCC(=O)NC1CCCCCC1 | 19%
CCc1cc(C(=O)OC)c(NC(=O)CCCC(=O)O)s1 | 9%
O=C(CN1C(=O)c2ccccc2C1=O)OCC(=O)c1ccccc1 | 3%
O=C(NCc1ccccc1)c1ccc(F)c(F)c1 | 0%
CC(=C/c1ccccc1)/C=C1/SC(N2CCOCC2)=NC1=O | -15%
COc1ccccc1OCC(=O)Nc1ccccc1C(=O)NCc1ccco1 | 5%
O=C(O)c1cc2ccccc2cc1Nc1ccccc1 | -19%
COc1cc(CC2COC(=O)C2(O)Cc2ccc(O)c(OC)c2)ccc1O (stereo unspecified) | -4%
CCOC(=O)C1CCN(CCCSc2ccc(C)cc2)CC1 | 0%
COc1ccc(CNC(=O)CCc2c(C)c3cc4c(C)coc4c(C)c3oc2=O)cc1OC | -9%
O=C(c1ccccc1NS(=O)(=O)c1cccc(C(F)(F)F)c1)N1CCc2ccccc21 | -5%
Cc1ccc(C2C3=C(CCCC3=O)Nc3[nH]c(=S)[nH]c(=O)c32)cc1 (stereo unspecified) | 89µM*
COc1ccc(C(=O)CSc2nncn2C)cc1 | 7%
COc1ccccc1C(=O)COC(=O)c1nc(Cl)ccc1Cl | -17%
CN(CCCNC(=O)CCc1cn(C)c2ccccc12)C1CCCCC1 | 9%
CN(C)C(=O)CCCCCCCCC(=O)N(C)C | -7%
CCOC(=O)COc1ccc2c(c1)c(C(=O)OCC)c(C)n2CC | 3%
O=C(Nc1cnccn1)c1cccnc1 | -12%
CC(C)(C)OC(=O)N1CCC2(CC1)C(C#N)=C(N)OC1=C2C(=O)CCC1 | 28%
COc1cccc(CNC(=O)CCCn2nc(C)n3c(cc4sccc43)c2=O)c1 | -16%&-11%
O=C(CN1C(=O)NC2(CCc3ccccc32)C1=O)Nc1cc(C(F)(F)F)ccc1N1CCOCC1 (stereo unspecified) | 2%
COc1ccc(NC(=O)c2scc(S(=O)(=O)C(C)C)c2N)cc1 | 5%
CSC1=NCCN1C(=O)c1cccc(C(F)(F)F)c1 | -10%
CN(Cc1ccccc1)S(=O)(=O)c1nnc(NC(=O)c2ccccc2F)s1 | 1%
CCNC(=O)C(=O)NCCc1ccc(Cl)cc1 | 2%
COCCCNC(=O)c1c(NC(=O)Cc2coc3c(C)c(C)ccc23)sc2c1CCCC2 | 1%
COc1ccc(CCNC(=O)CCc2c(C)nc3c(-c4ccc(F)cc4)c(C)nn3c2C)cc1OC | -4%
CC1CCCCC1NC(=O)c1ccc(S(=O)(=O)N2CCN(C)CC2)cc1 (stereo unspecified) | -13%
Cn1c(SCC(=O)Nc2ccccc2F)nnc1-c1cccs1 | 6%
O=C(NCc1ccc(F)cc1)C1CC(=O)N(C2CCCC2)C1 (stereo unspecified) | -11%
Cc1cc(C)cc(Oc2nc3ccccn3c(=O)c2/C=C(\C#N)c2nc3ccccc3s2)c1 | -29%
CCN1CCN(c2cc(C)c3cc(NC(=S)N4CCCCC4)ccc3n2)CC1 | 3%
CC(=O)c1cccc(NC(=O)CCNC(=O)c2ccccc2Cl)c1 | -16%
COc1ccc(S(=O)(=O)NCc2ccc(C(=O)NCCCN3CC(C)CC(C)C3)cc2)cc1 (stereo unspecified) | -12%
CCN1C(=O)/C(=C\C(=O)c2cccs2)c2cc(Br)ccc21 | 35µM*
Cc1ccc(S(=O)(=O)Nc2ccc3[nH]ccc3c2)cc1 | 19%
COC(=O)Nc1nnc(Cc2ccc(Cl)cc2)s1 | -1%
CC(C)Cn1cc(NC(=O)N2CCN(c3cccc(Cl)c3)CC2)c2ccccc2c1=O | 6%
Cc1ccc(-n2c(SCC(=O)Nc3ccc4c5c(cccc35)CC4)nc(O)cc2=O)cc1 | 8%
COc1cccc(NC(=O)CN(C)C(=O)CSCc2nc3scc(-c4cccs4)c3c(=O)[nH]2)c1 | -4%
Cc1cc(N2CCN(c3ccccc3)CC2)nc(N)n1 | 7%
COc1cccc(CNS(=O)(=O)c2cn(C)cn2)c1 | 6%
O=C(CCc1nc(-c2ccc(F)cc2)no1)NCc1ccccc1CN1CCOCC1 | 12%
COc1cc(S(=O)(=O)N2CCCCC2)ccc1NC(=O)c1ccccc1Cl | -6%
CCOc1ccc(NC(=O)CSc2nc3ccccc3nc2N2CCOCC2)cc1 | -25%&3%
COc1ccccc1NC(=O)C[n+]1ccccc1 | 4%
CCOc1cc(N2CCOCC2)c(OCC)cc1NC(=O)Cc1cccc2ccccc12 | 5%
O=C(COC(=O)c1ccc(S(=O)(=O)NCc2ccco2)cc1)NC1CCCCC1 | -7%
Cc1cc(C(=O)Nc2cccc(C(F)(F)F)c2)c2c(C)nn(-c3cccc(F)c3)c2n1 | -1%
CCN(CCCNC(=O)c1cc2c(=O)[nH]c3ccc(C)cc3c2s1)Cc1ccccc1 | -15%
O=C(COc1c(Cl)cc(Cl)cc1Cl)c1ccc(Cl)cc1 | -11%
N#C/C(=C/c1cccnc1)c1ccccc1 | -20%
Cc1ccc(C(=O)N/N=C\c2ccc(OC(=O)c3cccs3)cc2)cn1 | 5%
Cc1c(OCC(=O)OC(C)C)ccc2c3c(c(=O)oc12)CCC3 | -3%

Taken from the listing for reference:
SMILES | VDR inhibitor
COc1ccc(S(=O)(=O)NCc2ccc(C(=O)NCCCN3CC(C)CC(C)C3)cc2)cc1 (stereo unspecified) | -12%
CCN1C(=O)/C(=C\C(=O)c2cccs2)c2cc(Br)ccc21 | 35µM*
Cc1ccc(S(=O)(=O)Nc2ccc3[nH]ccc3c2)cc1 | 19%
COC(=O)Nc1nnc(Cc2ccc(Cl)cc2)s1 | -1%
CC(C)Cn1cc(NC(=O)N2CCN(c3cccc(Cl)c3)CC2)c2ccccc2c1=O | 6%
Cc1ccc(-n2c(SCC(=O)Nc3ccc4c5c(cccc35)CC4)nc(O)cc2=O)cc1 | 8%
COc1cccc(NC(=O)CN(C)C(=O)CSCc2nc3scc(-c4cccs4)c3c(=O)[nH]2)c1 | -4%
Cc1cc(N2CCN(c3ccccc3)CC2)nc(N)n1 | 7%
COc1cccc(CNS(=O)(=O)c2cn(C)cn2)c1 | 6%
O=C(CCc1nc(-c2ccc(F)cc2)no1)NCc1ccccc1CN1CCOCC1 | 12%
COc1cc(S(=O)(=O)N2CCCCC2)ccc1NC(=O)c1ccccc1Cl | -6%
CCOc1ccc(NC(=O)CSc2nc3ccccc3nc2N2CCOCC2)cc1 | -25%&3%
COc1ccccc1NC(=O)C[n+]1ccccc1 | 4%
CCOc1cc(N2CCOCC2)c(OCC)cc1NC(=O)Cc1cccc2ccccc12 | 5%
O=C(COC(=O)c1ccc(S(=O)(=O)NCc2ccco2)cc1)NC1CCCCC1 | -7%
Cc1cc(C(=O)Nc2cccc(C(F)(F)F)c2)c2c(C)nn(-c3cccc(F)c3)c2n1 | -1%
CCN(CCCNC(=O)c1cc2c(=O)[nH]c3ccc(C)cc3c2s1)Cc1ccccc1 | -15%
O=C(COc1c(Cl)cc(Cl)cc1Cl)c1ccc(Cl)cc1 | -11%
N#C/C(=C/c1cccnc1)c1ccccc1 | -20%

Further structures:
SMILES | VDR inhibitor
C/C(CC(=O)Nc1ccc(C)cc1C)=N\NC(=O)C(C)C | 7%
COC(=O)c1cc(NC(=O)Cc2ccc(OC)c(OC)c2)cc(C(=O)OC)c1 | ?
COc1ccc(Cn2c(SCc3ccc(C(=O)NCc4cccs4)cc3)nc3ccncc32)cc1 | -12%
CC(=O)c1cccc(N(C(=O)CNC(=O)c2ccco2)C(C(=O)NCc2ccco2)c2ccccc2)c1 (stereo unspecified) | 0%
CCn1nc(-c2ccccc2)c(-c2ccccc2)c(C(=O)Nc2ccc(S(N)(=O)=O)cc2)c1=O | 6%
COc1ccccc1CNC(=O)COC(=O)COc1ccccc1Cc1ccccc1 | -1%
COc1ccc(-n2c(Cc3ccccc3)nnc2SCC(=O)N2CCCc3ccccc32)cc1 | -8%
CC(=O)c1cccc(NC(=O)C(C)OC(=O)/C=C/c2cccs2)c1 (stereo unspecified) | -19%
COc1ccc(OC)c(NC(=O)c2ccc(S(=O)(=O)N3CCN(C)CC3)cc2)c1 | 7%
CC1Oc2ccccc2N(CC(=O)Nc2ccc3c(c2)OCCO3)C1=O (stereo unspecified) | 6%
CCOc1ccc(Br)cc1C1C(C(=O)OC)=C(N)Oc2cc(N(C)C)ccc21 (stereo unspecified) | 4%
Cc1ccc(S(=O)(=O)NNC(=O)C(O)(c2ccccc2)c2ccccc2)cc1 | -11%
CCN(CC)C(=O)N1CCN(C(=O)c2ccc(C)cn2)CC1 | 5%
O=C(N/N=C/c1cc(Br)ccc1O)Nc1ccccc1 | -6%
CSc1ccccc1OCc1cc(C(=O)N(C)Cc2c(C)n[nH]c2C)no1 | 9%
COc1cccc(-n2c(=O)c3sccc3n(CC(=O)NC3CCCCC3)c2=O)c1 | 6%
CCOC(=O)c1ccccc1NC(=O)CSc1nc2c(sc(=S)n2CC)c(=O)[nH]1 | -18%
O=C(CCS(=O)(=O)c1ccc2c(c1)NC(=O)CO2)NCCc1ccccc1 | ?
COc1cc(OC)cc(C(=O)Nc2nnc3n2CCS3)c1 | 0%
O=C(NCc1ccc(F)cc1)C(=O)NCC1OCCN1S(=O)(=O)c1ccc2c(c1)OCCO2 (stereo unspecified) | 7%
Cc1sc2ncn(CC(=O)NCCN3CCOCC3)c(=O)c2c1S(=O)(=O)N1CCC(C)CC1 | 5%
Cc1ccc(C(=O)CCC(=O)Nc2ccc(Cl)c(S(=O)(=O)Nc3cccc(Cl)c3)c2)cc1 | -6%
CC(=O)c1ccc(NC(=O)c2cc3c(=O)oc4ccc(C)cc4c3s2)cc1 | 2%
Cc1ccc(-c2nc3sc(CCNC(=O)c4ccc(F)c(F)c4)c(C)n3n2)cc1 | 7%
CCOCC(=O)Nc1ccc(-c2cn3cccnc3n2)cc1 | -5%
O=[N+]([O-])c1ccccc1/C=N/n1c(COc2ccccc2)n[nH]c1=S | -26%
COc1ccc2[nH]cc(CCNc3ncncc3-c3ccc(C(=O)N(C)C)cc3)c2c1 | -7%
CC(=O)N1c2ccc(S(=O)(=O)NCCC(=O)Nc3ccc(Br)c(C)c3)cc2CC1C (stereo unspecified) | 9%
COc1ccc(CNC(=O)COC(=O)c2ccc(OCC3CCCO3)cc2)cc1 (stereo unspecified) | -21%
O=C(CCSCc1cccc(F)c1)NCc1ccc(F)cc1 | ?
OB(O)c1cc2ccccc2o1 | ?
CCOc1ccc(/C=N/NS(=O)(=O)c2ccc(C)cc2)cc1OC | -5%
Cc1c(C(=O)NCCc2ccccc2)cccc1-n1cnc2cccnc21 | 10%
CS(=O)(=O)N(CCc1ccccc1)CC(N)=O | 2%
CCOC(=O)C1CCCN(CC(=O)N2CCCc3c2c(=O)oc2ccc(OCc4ccccc4)cc32)C1 (stereo unspecified) | -5%
Cc1ccc(S(=O)(=O)N(C)C)cc1NC(=O)C1CCCCC1 | -5%
COc1ccc(S(=O)(=O)Nc2ccc(C(N)=O)cc2)cc1C(=O)N1CCCCCC1 | 15%
COc1ccc(N(CC(=O)NCc2cccs2)S(=O)(=O)c2cccnc2)cc1 | -10%
CCCCOC(=O)Cn1c(=O)c2c(nc3n2CCCCN3c2ccc(C)cc2)n(C)c1=O | 11%
CCOC(=O)[C@H]1[C@H]2COc3cc(OC)ccc3[C@@H]2N2C(=O)CN(Cc3ccc(OC)cc3)C(=O)[C@@]12C | 3%
CCS(=O)(=O)N1CCN(c2ccc([N+](=O)[O-])c(NCc3cccnc3)c2)CC1 | -3%
COc1ccc(CN2C(=O)CN=C2Nc2cc(C)ccc2C)cc1 | 13%
CC(=O)Nc1ccc(C(=O)OC2CCOC2=O)cc1 (stereo unspecified) | -5%
Cc1cccc(NCC(=O)N/N=C\c2ccccn2)c1 | 8%
CCOc1ccccc1NC(=O)COC(=O)c1ccc(S(=O)(=O)N2CCCC2)cc1 | -14%
COc1cc(NC(=O)Cc2ccc([N+](=O)[O-])cc2)c(C(=O)O)cc1OC | 11%
CCc1nc2ccccc2n1CCc1ccccc1 | 1%
CCOC(=O)c1c(CN2CCCCC2C)oc2ccc(OC)cc12 (stereo unspecified) | -13%
CCc1cc2c(=O)c(-c3nc4ccccc4n3C)coc2c(CN2CCCCC2C)c1O (stereo unspecified) | 20%
Cc1ccc(NC(=S)NC(=O)C2CC2)cc1Cl | -10%
CCc1c(C)sc(NC(=O)OC)c1C(=O)N1CCCCC1 | -8%
CC(C)CNC(=O)c1ccccc1SCC(=O)NC12CC3CC(CC(C3)C1)C2 | -19%
Cc1ccc(N(CCC#N)C(=O)CN2C(=O)NC(Cc3ccccc3)C2=O)cc1 (stereo unspecified) | -16%
COc1cccc(NCCC(=O)c2cccc([N+](=O)[O-])c2)c1 | 79µM*
Cc1cc(C)cc(-n2c(=O)c3ccccc3n(CC(=O)NCC3CCCO3)c2=O)c1 (stereo unspecified) | -11%
Cc1ccc(C(=O)NNC(=S)NC(=O)c2ccc(Cl)cc2)cc1 | 5%
CC#CCN1c2ccccc2[C@]23C[C@@H](C(=O)OC)N(C(=O)c4ccc(Br)cc4)C2=NC(C(=O)OC)=C(C(=O)OC)[C@H]13 | -10%
Fc1ccc(NC(=S)Nc2cccc3ccccc23)cc1F | -12%
C=CCn1c(=O)c2c3c(sc2n2c(Nc4ccc(OC)cc4)nnc12)CCCC3 | 19%

Rewritten with each value named: entries from further up
> Cc1ccc(C(=O)NNC(=S)NC(=O)c2ccc(Cl)cc2)cc1
  VDR inhibitor = 5%

> CC#CCN1c2ccccc2[C@]23C[C@@H](C(=O)OC)N(C(=O)c4ccc(Br)cc4)C2=NC(C(=O)OC)=C(C(=O)OC)[C@H]13
  VDR inhibitor = -10%

A portion of the library; the hit share may differ from the screen's.
